rRNA inh HTS: reduced GFP signal of wild-type E. coli, primary screen, bacterial rRNA inhibitor project, GFP/RFP fluorescence, OD600, single point | GFP signal change (wild-type ribosome), % (test concentration not listed) | 1.6% of 350,000 active | E. coli WT GFP vs humanized-ribosome RFP mutants, 24 h; stronger effect = lower value; DMSO median 0, no signal -100;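 active = significant combined selectivity score with lowered wild-type GFP, culture density cut under 30%, mutant RFP and density less affected; inactive = any of these conditions unmet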; note: one replicate is shown; some compounds called inactive have numbers as strong as hits
rRNA inh HTS OD600: recorded beside rRNA inh HTS, whose call it bears; OD600 change, %; measured here: OD600 growth;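 optical density of the mix in the first replicate; 0 = DMSO median and -100 = no signal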
rRNA inh HTS RFP: recorded beside rRNA inh HTS, whose call it bears; RFP signal change, %; measured here: RFP humanized mutant strains;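 first replicate; 0 = DMSO median and -100 = no signal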
* marks the source's active call; other numbers are inactive results; & = joins results of further samples.

SMILES	rRNA inh HTS	rRNA inh HTS OD600	rRNA inh HTS RFP
Cc1noc(C)c1NC(=O)N[C@H]1C=C[C@@H](CC(=O)NCc2ccc(Cl)c(Cl)c2)O[C@H]1CO	-1	4	-0.4
COc1ccccc1CNC(=O)C[C@H]1C[C@@H]2c3cc(NC(=O)CC4CC4)ccc3O[C@@H]2[C@@H](CO)O1	-7	-5	-0.9
C[C@H]1CN([C@@H](C)CO)C(=O)c2cc(C#CC(C)(C)O)cnc2O[C@H]1CN(C)C(=O)C1CCCCC1	6	4	-0.2
C[C@H](CO)N1C[C@H](C)[C@H](CN(C)C(=O)Nc2ccc3c(c2)OCO3)Oc2ccc(NS(=O)(=O)c3ccc(Cl)cc3)cc2CC1=O	-3	2	1.4
COc1ccccc1-c1cnc2c(c1)C(=O)N([C@H](C)CO)C[C@H](C)[C@H](CN(C)C(=O)c1ccncc1)O2	-1	-2	-2.1
Cc1[nH]c2ccccc2c1CC(=O)Nc1ccc(Nc2cccnc2)c(-c2ccc(C(C)(C)C)cc2)c1	36	26	4.4
CN1C(=O)c2cc(NC(=O)c3cccs3)ccc2OC[C@H]2O[C@@H](CC(=O)O)CC[C@@H]21	2	4	-1.4
C[C@@H]1CN([C@@H](C)CO)C(=O)Cc2cc(NC(=O)Nc3ccc(C(F)(F)F)cc3)ccc2O[C@H]1CN(C)Cc1ccc(Oc2ccccc2)cc1	-3	1	-4.8
C[C@@H]1CN([C@@H](C)CO)C(=O)Cc2cc(NS(=O)(=O)c3cn(C)cn3)ccc2O[C@H]1CN(C)Cc1ccc2c(c1)OCO2	1	3	1.2
CO[C@@H]1CN(C)C(=O)c2ccc(NC(=O)Nc3ccc(Cl)cc3)cc2OC[C@@H](C)NC[C@@H]1C	-3	5	12
COc1ccccc1C(=O)Nc1ccc2c(c1)C(=O)N(C)[C@@H]1CC[C@H](CC(=O)NCc3ccc(Cl)c(Cl)c3)O[C@H]1CO2	-5	-17	1.9
COc1ccc2c3c(n(C)c2c1)[C@@H](CO)N(C(=O)Nc1ccc(F)cc1)CC31CCN(C(=O)CC2CC2)CC1	0	-8	7.9
C[C@@H]1CN(C)C(=O)c2cc(N)ccc2O[C@H]1CN(C)C(=O)OC(C)(C)C	0	1	-0.1
C[C@H]1CN([C@@H](C)CO)C(=O)c2cc(NS(C)(=O)=O)ccc2O[C@H]1CN(C)S(=O)(=O)c1ccccc1	2	6	-4.0
C[C@@H]1CN([C@@H](C)CO)C(=O)c2cc(NS(=O)(=O)c3ccc(Cl)cc3)ccc2O[C@H]1CN(C)S(C)(=O)=O	2	4	-0.6

The closing five compounds of the part before open the next one:
SMILES	rRNA inh HTS	rRNA inh HTS OD600	rRNA inh HTS RFP
COc1ccccc1C(=O)Nc1ccc2c(c1)C(=O)N(C)[C@@H]1CC[C@H](CC(=O)NCc3ccc(Cl)c(Cl)c3)O[C@H]1CO2	-5	-17	1.9
COc1ccc2c3c(n(C)c2c1)[C@@H](CO)N(C(=O)Nc1ccc(F)cc1)CC31CCN(C(=O)CC2CC2)CC1	0	-8	7.9
C[C@@H]1CN(C)C(=O)c2cc(N)ccc2O[C@H]1CN(C)C(=O)OC(C)(C)C	0	1	-0.1
C[C@H]1CN([C@@H](C)CO)C(=O)c2cc(NS(C)(=O)=O)ccc2O[C@H]1CN(C)S(=O)(=O)c1ccccc1	2	6	-4.0
C[C@@H]1CN([C@@H](C)CO)C(=O)c2cc(NS(=O)(=O)c3ccc(Cl)cc3)ccc2O[C@H]1CN(C)S(C)(=O)=O	2	4	-0.6
C[C@H](CO)N1C[C@H](C)[C@H](CN(C)C)Oc2cc(C#Cc3ccc(F)cc3)ccc2S1(=O)=O	1	6	3.9
O=C(C[C@H]1CC[C@H]2NC[C@H](O)COC[C@@H]2O1)Nc1ccc(-c2ccccc2)cc1	-3	-7	-1.7
O=C(Nc1ccc2c(c1)[C@H]1C[C@@H](CC(=O)N3CCOCC3)O[C@H](CO)[C@H]1O2)C1CCC1	1	-4	0.8
O=C(C[C@@H]1CC[C@H]2[C@@H](COC[C@H](O)CN2C(=O)Nc2ccc(Cl)cc2)O1)NC1Cc2ccccc2C1	-47	-60	0.1
CCCNC(=O)N1CC2(C1)CN(C(=O)COC)[C@H](CO)c1c2c2ccc(OC)cc2n1C	-1	10	-3.2
C[C@@H]1CCCCO[C@@H](CN(C)Cc2ccc(C(=O)Nc3ccccc3N)cc2)[C@@H](C)CN([C@H](C)CO)C(=O)c2cc(NC(=O)NC3CCCCC3)ccc2O1	-4	-2	-1.5
CC(C)NC(=O)Nc1ccc2c(c1)C(=O)N([C@@H](C)CO)C[C@H](C)[C@H](CN(C)Cc1ccc3c(c1)OCO3)OCCCC[C@@H](C)O2	4	10	1.0
Cc1noc(C)c1NC(=O)Nc1ccc2c(c1)C(=O)N([C@H](C)CO)C[C@H](C)[C@@H](CN(C)Cc1ccc(C(=O)O)cc1)OCCCC[C@H](C)O2	6	8	-1.1
C[C@@H]1CN([C@@H](C)CO)C(=O)c2cc(NS(=O)(=O)c3ccccc3)ccc2O[C@@H](C)CCCCO[C@@H]1CN(C)Cc1ccc(C(=O)O)cc1	-3	-4	-1.8
CO[C@H]1CN(C)C(=O)c2ccc(NS(C)(=O)=O)cc2OC[C@H](C)N(C(=O)c2ccc3c(c2)OCO3)C[C@H]1C	1	0	-0.1
CNC(=O)C[C@H]1CC[C@H]2[C@@H](COc3ccc(NC(=O)c4ccno4)cc3C(=O)N2C)O1	5	3	-2.8
CC(=O)Nc1ccc2c(c1)C(=O)N(C)[C@H]1CC[C@H](CC(=O)NCC3CCCCC3)O[C@@H]1CO2	2	10	-1.6
COc1ccccc1NC(=O)N1C[C@@H](O)COC[C@H]2O[C@H](CC(=O)N3CCC(Cc4ccccc4)CC3)CC[C@@H]21	-8	-20	-5.3
CCCN1C[C@H](C)[C@H](OC)CN(C)C(=O)c2ccc(NC(=O)CC)cc2OC[C@H]1C	3	6	-3.1
Cc1ccc(S(=O)(=O)N2[C@@H](Cc3ccccc3)CO[C@H]2CC(=O)c2ccc(F)cc2)cc1	3	4	1.8

Looked up above:
COc1ccccc1NC(=O)N1C[C@@H](O)COC[C@H]2O[C@H](CC(=O)N3CCC(Cc4ccccc4)CC3)CC[C@@H]21 in rRNA inh HTS RFP reads -5.3
Cc1noc(C)c1NC(=O)Nc1ccc2c(c1)C(=O)N([C@H](C)CO)C[C@H](C)[C@@H](CN(C)Cc1ccc(C(=O)O)cc1)OCCCC[C@H](C)O2 in rRNA inh HTS reads 6

(next part)
SMILES	rRNA inh HTS	rRNA inh HTS OD600	rRNA inh HTS RFP
CCCNC(=O)N1[C@@H]2CNC[C@H]1C2c1ccc(-c2ccc(C)cc2)cc1 (some centres not stated)	4&1	22&4	-1.2&-1.1
CC(=O)Nc1ccc2c(c1)C(=O)N(C)[C@@H]1CC[C@H](CC(=O)NCC3CCCCC3)O[C@H]1CO2	-11	3	-5.5
COc1ccc(C[C@@H]2CCn3nncc3COC[C@@H](CC(C)C)NC2=O)cc1	2	6	-2.0
CC(C)CC#Cc1ccc2c(c1)O[C@H](CN(C)C(=O)C1CC1)[C@@H](C)CN([C@@H](C)CO)S2(=O)=O	-9	-40	15
CCCNC(=O)Nc1ccc2c(c1)C(=O)N(C)C[C@@H](OC)[C@@H](C)CN(CCC(F)(F)F)[C@@H](C)CO2	1	-1	-2.4
COCC(=O)Nc1ccc2c(c1)C(=O)N(C)[C@@H]1CC[C@@H](CC(=O)NCc3ccccc3Cl)O[C@@H]1CO2	2	-7	-0.5
COc1ccc(NC(=O)N2CCC3(CC2)CN(CC2CC2)[C@@H](CO)c2c3c3ccc(OC)cc3n2C)cc1	-3	-6	5.6
C[C@@H]1CN([C@@H](C)CO)C(=O)Cc2cc(NC(=O)Cc3cn(C)c4ccccc34)ccc2O[C@H]1CN(C)Cc1ccc(Oc2ccccc2)cc1	3	11	16
O=C(N[C@H](C(=O)N1CCC[C@H]1C(=O)NCc1ccccc1)c1ccccc1)c1ccc(Cl)cc1Cl	-21	-19	2.2
CN(C)C(=O)c1cccc(-c2ccc3c(c2)[C@H]2[C@H](CCN2C(=O)c2cccnc2)[C@@H](CO)N3)c1	1	11	-2.7
C[C@H](CO)N1C[C@H](C)[C@@H](CN(C)Cc2ccc(-c3ccccc3)cc2)Oc2c(NC(=O)CCC(F)(F)F)cccc2C1=O	3	11	-0.2
C[C@@H]1CCCCO[C@H](CN(C)Cc2ccc(C(=O)O)cc2)[C@H](C)CN([C@H](C)CO)C(=O)c2cc(NS(=O)(=O)c3cn(C)cn3)ccc2O1	0	-2	-1.8
C[C@@H]1CN([C@H](C)CO)C(=O)c2cccc(NC(=O)c3nc4ccccc4s3)c2O[C@H]1CN(C)C(=O)Nc1cccc2ccccc12	1	-12	2.6
COc1ccccc1-c1ccc2c(c1)[C@@H]1C[C@H]3[C@@H](CN1CC2)[C@H](C)ON3C	1	-2	7.4
COc1ccc(CN2C(=O)CSCC2(C)C(=O)NC(C)C)cc1 (configuration not stated)	9	9	-0.1

Quoted at random: four compounds from above, in no set order.
SMILES	rRNA inh HTS	rRNA inh HTS OD600	rRNA inh HTS RFP
O=C(Nc1ccc2c(c1)[C@H]1C[C@@H](CC(=O)N3CCOCC3)O[C@H](CO)[C@H]1O2)C1CCC1	1	-4	0.8
Cc1noc(C)c1NC(=O)Nc1ccc2c(c1)C(=O)N([C@H](C)CO)C[C@H](C)[C@@H](CN(C)Cc1ccc(C(=O)O)cc1)OCCCC[C@H](C)O2	6	8	-1.1
C[C@@H]1CN([C@@H](C)CO)C(=O)c2cc(NS(=O)(=O)c3ccc(Cl)cc3)ccc2O[C@H]1CN(C)S(C)(=O)=O	2	4	-0.6
C[C@@H]1CN([C@@H](C)CO)C(=O)Cc2cc(NC(=O)Nc3ccc(C(F)(F)F)cc3)ccc2O[C@H]1CN(C)Cc1ccc(Oc2ccccc2)cc1	-3	1	-4.8

Following part
SMILES	rRNA inh HTS	rRNA inh HTS OD600	rRNA inh HTS RFP
C[C@@H]1CCCCO[C@@H](CN(C)S(=O)(=O)c2ccc(Cl)cc2)[C@H](C)CN([C@@H](C)CO)C(=O)c2cc(NS(=O)(=O)c3ccc(Cl)cc3)ccc2O1	-6	-4	-6.4
O=C(CC(F)(F)F)N1C[C@@H]2[C@H](c3ccccc31)[C@@H](CO)N2C(=O)C1CCCCC1	-1	-2	0.5
Cc1cc(O)cc(=O)n1-c1ccc(Cl)c(C(F)(F)F)c1	15	16	4.3
CCCC#Cc1ccc([C@@H]2[C@H]3CN(S(=O)(=O)c4ccccc4F)CCCCN3[C@H]2CO)cc1	8	7	9.9
CCCNC(=O)Nc1ccc2c(c1)C(=O)N(C)C[C@@H](OC)[C@@H](C)CN(Cc1ccccc1)[C@H](C)CO2	-4	-9	1.5
C[C@@H]1CN([C@H](C)CO)C(=O)c2cc(C#CC3CCCCC3)cnc2O[C@H]1CN(C)C	0	11	-1.8
CS(=O)(=O)Nc1ccc2c(c1)[C@H]1C[C@H](CC(=O)N3CCCCC3)O[C@H](CO)[C@H]1O2	3	7	-0.8
C[C@@H]1C(=O)N[C@@H](c2ccc3c(c2)OCO3)CC=CC[C@H](C)Oc2ccccc2C(=O)N1C (mixture of isomers)	-5	-2	2.5
COc1ccc(NC(=O)N(C)C[C@H]2Oc3ccc(NS(=O)(=O)c4ccc(C)cc4)cc3CC(=O)N([C@H](C)CO)C[C@@H]2C)cc1	2	0	0.5
c1ccc(Cn2cc(CCOCc3ccccn3)c3ccccc32)cc1	-7	5	6.9
CCC(=O)NC[C@@H]1[C@H](c2ccc(C3=CCCC3)cc2)[C@@H](CO)N1C(=O)C1CC1	-3	-2	0.6
C[C@H](CO)N1C[C@H](C)[C@@H](CN(C)S(=O)(=O)c2ccccc2)Oc2ccc(NS(=O)(=O)c3ccc(Cl)cc3)cc2C1=O	-3	-11	2.4
COCC(=O)Nc1ccc2c(c1)C(=O)N(C)[C@H]1CC[C@H](CC(=O)NCc3ccccc3Cl)O[C@H]1CO2	-1	3	2.8
C[C@@H](O)C#Cc1ccc([C@@H]2[C@H]3CN(C(=O)c4cccc(F)c4)CCCCN3[C@H]2CO)cc1	3	9	0.3
C[C@@H]1CN([C@@H](C)CO)C(=O)c2cc(NC(=O)Cc3ccccc3)ccc2O[C@@H](C)CCCCO[C@H]1CN(C)Cc1ccncc1	0	-1	0.9
CC(=O)Nc1ccc2c(c1)CC(=O)N(C)C[C@@H](C)[C@H](CN(C)S(C)(=O)=O)O2	-1	1	-0.7
C[C@@H]1CN([C@H](C)CO)C(=O)CCCn2cc(nn2)CO[C@@H]1CN(C)C(=O)NC1CCCCC1	0	0	0.3
C[C@H]1CN([C@@H](C)CO)C(=O)Cc2cc(NS(=O)(=O)c3cn(C)cn3)ccc2O[C@@H]1CN(C)Cc1ccc2c(c1)OCO2	1	11	1.3
C[C@@H]1CCCCO[C@@H](CN(C)C(=O)Nc2cccc3ccccc23)[C@H](C)CN([C@H](C)CO)C(=O)c2cc(NS(=O)(=O)c3cn(C)cn3)ccc2O1	-1	-8	2.3
COc1ccc2c3c(n(C)c2c1)[C@H](CO)N(C(C)=O)CC31CCN(C(=O)Nc2ccc(F)cc2)CC1	-9	-10	2.0
O=C(Nc1ccc(F)cc1)C(c1cc2ccccc2o1)N1CCN(c2cccc(C(F)(F)F)n2)CC1 (configuration not stated)	16	16	-1.4
COCC(=O)Nc1ccc2c(c1)OC[C@@H](C)N(C(=O)Nc1ccccc1F)C[C@@H](C)[C@H](OC)CN(C)C2=O	-2	1	-0.5
C[C@@H]1CCCCO[C@@H](CN(C)C(=O)CCC(F)(F)F)[C@H](C)CN([C@H](C)CO)C(=O)c2cc(NS(C)(=O)=O)ccc2O1	0	-1	-2.2
Cc1noc(C)c1NC(=O)Nc1ccc2c(c1)C(=O)N([C@@H](C)CO)C[C@@H](C)[C@@H](CN(C)Cc1ccc(C(=O)O)cc1)OCCCC[C@H](C)O2	1	6	0.4

The list is partial (hit frequency here may not be typical).
